# Marburg entry inh: blocks Marburg virus binding to or entry into cells | Marburg virus pseudotyped entry inhibition, cell reporter; control for the full effect not named in the record; about a third of the inactives were read at about 46 µM | Potency, µM (top dose mostly 37.8 µM), for inactives: at the top dose activity change, negative = inhibition, actives largely listed as inhibitors | hit rate 1.8% among 300,000 | AID 540276; active = well fitted inhibition curve with a large enough effect; inconclusive = small, poorly fitted or top-dose-only effect, or effect the other way; inactive = flat fitted curve, though single readings scatter; tested in HEK293 cells; about a fifth of its hits are not listed in these tables; also: % is scaled to controls: 0 for no effect and ±100 for the full control effect; luciferase read-out
# SARS PLpro yeast: blocks SARS-CoV papain-like protease in a yeast assay; Potency, µM (titrated, usually from 32.9 µM), for inactives: at the top dose activity, positive = growth rescue; S. cerevisiae expressing SARS-CoV PLpro, growth rescue; control for the full effect not named in the record; hit rate 0.19% among 330,000; also: 0% is about no effect; nearly all actives have a fitted effect of over 55% in size; growth read by luminescence after 48 h
# StopGo reporter: lowers the luciferase signal of an FMDV 2A StopGo reporter; human cells with a luciferase reporter of 2A StopGo recoding; control for the full effect not named in the record; Potency, µM (highest dose often 57.9 µM), for inactives: top-dose signal change, negative = less light; hit rate 1.2% among 410,000; active = well fitted falling curve with a large enough effect; inconclusive = small, poorly fitted or top-dose-only effect; inactive = no such curve, though single readings can be large or run the other way; tested in HEK293T cells; also: % is scaled to controls: 0 for no effect and ±100 for the full control effect; nearly all actives have a fitted effect of over 45% in size; luciferase light after 4 h
# Lassa entry inh: blocks Lassa virus binding to or entry into cells | Potency, µM (series often up to 37.9 µM), for inactives: top-dose activity change, negative = inhibition, hits mostly inhibitors | hit rate 1.2% among 300,000 | Lassa virus pseudotype entry inhibition, cell reporter; control for the full effect not named in the record; active means well fitted inhibition curve with a large enough effect; inconclusive means small, poorly fitted or top-dose-only effect, or effect the other way; inactive means flat fitted curve, though single readings scatter; tested in HEK293 cells; also: % is scaled to controls: 0 for no effect and ±100 for the full control effect; nearly all actives have a fitted effect of over 50% in size; luciferase read-out
# Cruzain inh Det: inhibitors of Trypanosoma cruzi cruzain with detergent; purified cruzain, Z-FR-AMC fluorescence, 0.01% Triton; AID 1478; hit rate 0.43% among 200,000; Potency, µM, without a hit: max response, negative = inhibition, most hits filed as inhibitors; P25779; active = well fitted curve in the direction sought with a large enough effect; inconclusive = small, poorly fitted or top-dose-only effect, or another doubt; inactive = no such curve, though single readings can be large; an effect the other way counts as inactive or inconclusive;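 also: plate controls were neutral wells for no effect and buffer without enzyme for full effect; nearly all actives have a fitted effect of over 40% in size; top concentration of the series not given in the record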
# Target sequence (P25779 123-467 limits assumed): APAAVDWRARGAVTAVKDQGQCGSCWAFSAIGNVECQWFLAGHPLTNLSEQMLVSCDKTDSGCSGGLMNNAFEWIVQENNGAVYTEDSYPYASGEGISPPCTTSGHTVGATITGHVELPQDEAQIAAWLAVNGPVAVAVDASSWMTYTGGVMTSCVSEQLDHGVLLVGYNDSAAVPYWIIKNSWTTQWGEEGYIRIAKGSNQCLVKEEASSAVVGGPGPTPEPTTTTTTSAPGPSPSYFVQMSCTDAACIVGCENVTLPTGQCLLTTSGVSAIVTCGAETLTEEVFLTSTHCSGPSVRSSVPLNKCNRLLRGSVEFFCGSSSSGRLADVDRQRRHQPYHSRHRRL
#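 Read-out: AMC fluorescence (360 nm excitation, 450 nm emission), four reads over 2 min, first-to-third difference used. Conditions: cruzain 1.5 nM, Z-FR-AMC 2 uM, pH 5.5 acetate, 5 mM DTT, 0.01% Triton X-100.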
# RE007 growth inh: less growth of the S. pombe RE007 Vpr strain; AID 651644; Potency, µM (series often up to 92.2 µM), without a hit: at the top dose activity change, negative = less growth; S. pombe RE007 Vpr strain, BacTiter-Glo ATP luminescence, 24 h; control for the full effect not named in the record; hit rate 0.21% among 360,000; active = well fitted falling curve with a large enough effect; inconclusive = small, poorly fitted or top-dose-only effect; inactive = no such curve, though single readings can be large or run the other way;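 also: % is scaled to controls: 0 for no effect and ±100 for the full control effect; nearly all actives have a fitted effect of over 50% in size; the assay follows cell death caused by Vpr and the record does not say whether a fall means rescue or toxicity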
#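 Fission yeast RE007 carrying one integrated HIV-1 vpr copy, seeded at OD 0.01 in PMG+AL medium with 23 nL pinned compound. Grown 24 h at 30 degrees; viability read by BacTiter-Glo luminescence after 5 min.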
# Cruzain inh noDet: inhibitors of Trypanosoma cruzi cruzain without detergent. P25779. purified cruzain, Z-FR-AMC fluorescence, no detergent. Potency, µM, for inactives: max response, negative = inhibition, most hits filed as inhibitors. hit rate 2.3% among 200,000. AID 1476; active = well fitted curve in the direction sought with a large enough effect; inconclusive = small, poorly fitted or top-dose-only effect, or another doubt; inactive = no such curve, though single readings can be large; an effect the other way counts as inactive or inconclusive;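 also: plate controls were enzyme without inhibitor for no effect and buffer without enzyme for full effect; nearly all actives have a fitted effect of over 40% in size; top concentration of the series not given in the record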
#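 Detergent-free condition (0.00005% Triton X-100) in acetate buffer pH 5.5 with DTT. 1.5 nM enzyme and compound were pre-mixed 15 min, then 2 uM Z-FR-AMC substrate added; reaction progress from fluorescence change between first and third reads (60 s).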
# NS1 inh: influenza NS1 inhibition. S. cerevisiae slowed by influenza A NS1, growth recovery by OD600. Potency, µM (top dose mostly 46.1 µM), for inactives: at the highest dose activity, positive = more growth. hit rate 0.4% among 270,000. AID 2326; also: actives are rising curves; nearly all actives have a fitted effect of over 50% in size
#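 Growth recovery, yeast-based: influenza A NS1 expressed in S. cerevisiae causes slow growth, and suppressors are detected by OD600. The parent strain without NS1 is used as positive control.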
# An asterisk follows results filed as active; ? = inconclusive; . = no result given; & = joins results of further samples; [ ] = another dose, or the depositor's remark. Unless noted, calls follow the shape of the dose curve; as a rule, active means well fitted rising curve with a large enough effect; inconclusive means small, poorly fitted or top-dose-only effect; inactive means no such curve, though single readings can be large or run the other way. Potency is read from the fitted curve at half-maximal effect.
# Fields – Marburg entry inh | SARS PLpro yeast | StopGo reporter | Lassa entry inh | Cruzain inh Det | RE007 growth inh | Cruzain inh noDet | NS1 inh
- O=C(Nc1cccc(C(=O)NC2CC2)c1)c1ccc(F)c(S(=O)(=O)N2CCOCC2)c1
  ? | 3% | -28% | 3% | . | 3% | . | .
- O=C(CCSCCc1ccccn1)Nc1cccc([N+](=O)[O-])c1
  ? | -1% | -15% | -2% | . | -14% | . | .
- Cc1ccc(/C=N/Nc2nc(C(C)(C)C)cs2)o1
  -19% | 0% | 13% | 0% | -13% | 1% | -13% | 4%
- CCOC(=O)C1CCCCN1Cc1ccc(F)cc1 (stereo not given)
  7% | 8% | -2% | 1% | 2.7% | 11% | 8% | -4%
- Cc1ccc(NC(=O)C2CC(=O)N(Cc3ccccc3)C2)nc1 (stereo not given)
  2% | -3% | 0% | 9% | . | 6% | . | .
- CCCCn1nnnc1NCc1cccs1
  -6% | 3% | 41%[activator] | -1% | -0.2% | 11% | -5% | -1%
- O=C1CC(c2ccc(S(=O)(=O)NCc3ccccc3)cc2)CN1 (stereo not given)
  . | -1% | 32%[activator] | . | 1.4% | -3% | -7% | ?
- O=C(COC(=O)CNS(=O)(=O)c1ccccc1)Nc1ccc(Cl)cn1
  3% | -2% | -20% | -12% | ? | -3% | ? | -20%
- Cc1cc(C)cc(NC(=S)N2CCN(c3ncc(C(F)(F)F)cc3Cl)CC2)c1
  18%[46.1 µM] | 1% | -8% | ? | . | -5% | . | 4%
- CC(C(=O)NCc1ccc(Cl)cc1)n1cccc1C(=O)c1ccccc1 (stereo not given)
  . | -8% | 8% | . | . | 5% | . | -9%
- O=C(NC1CCC(O)CC1)c1cc(Cl)c2c(c1)OCCO2 (stereo not given)
  8% | 2% | 31%[activator] | 3% | . | -6% | . | .
- CC1=NN(C(=S)Nc2ccccc2)C(C)(C)C1
  30%[46.1 µM] | 0% | 25% | 12% | . | -6% | . | 3%
- CC(OC(=O)C1CCN(S(=O)(=O)c2ccc(C(C)(C)C)cc2)CC1)C(=O)N1CCOCC1 (stereo not given)
  ? | 3% | -14% | -1% | . | 12% | . | .
- O=C(CN1C(=O)CSc2ccc(S(=O)(=O)N3CCOCC3)cc21)N1CCCCC1
  19%[46.1 µM] | 12% | -6% | -10%[46.1 µM] | . | 6% | . | 0%
- Cc1ncccc1C(=O)N1CCCC(CCC(=O)N2CCN(c3ccccn3)CC2)C1 (stereo not given)
  . | -14% | -22% | . | . | -8% | . | ?
- CC1(C)CC(=O)c2cc(C(=O)Nc3ccc(Br)cc3)c(=O)[nH]c2C1
  ? | . | 30%[activator] | 2%[46.1 µM] | -1.4% | . | 1% | .
- CC(=O)N1CCc2cc3nc(C)cc(C)c3cc21
  -11% | -3% | 5% | 3% | ? | -1% | ? | -47%
- S=C(NCCc1ccc(Cl)cc1)NC1CCCC1
  . | -4% | 50%[activator] | . | . | -17% | . | -37%
- Cc1ccc(CSc2nc3c([nH]c4ccccc43)c(=O)n2C)cc1
  . | . | -9% | ? | 1.7% | . | 11% | .
- CCOC(=O)C1CCN(C(=O)CSc2ccc(Cl)cc2)CC1
  5% | -10% | 16% | -1% | 2.5% | -19% | -5% | -12%
- CCOC(=O)Cn1c(CN2CCOCC2)nc2c1c(=O)n(C)c(=O)n2C
  . | 0% | -19% | . | 0.3% | 3% | -7% | -2%
- CC12CN(C(=O)c3ccc(Cl)cc3)C3(C#N)CC1CCC23C (stereo not given)
  14% | 4% | 4% | 2% | -12% | -1% | 2% | -5%
- Cc1onc(-c2c(F)cccc2Cl)c1-c1nnc(-c2cccc3ccccc23)o1
  10%[46.1 µM] | 0% | -28% | 1%[46.1 µM] | . | 9% | . | -2%
- O=C(Nc1ccc(S(=O)(=O)Nc2nccs2)cc1)c1cccc(S(=O)(=O)N2CCOCC2)c1
  . | 1% | 15% | . | . | -6% | . | -5%
- CN1C(=O)/C(=C\c2ccc(N3CCCCCC3)cc2)C(=O)NC1=S
  . | 3% | -22% | . | . | -2% | . | -2%
- COc1nc(-c2ccccc2)ccc1-c1noc(COc2ccccc2)n1
  17% | . | -5% | -3% | -9.0% | -11% | -15% | -35%
- C=CCn1c(SCC(=O)/C(C#N)=C(\C)N)nc2sc(CC)cc2c1=O
  ? | 1% | 22µM* | ? | -6.7% | -11%&5% | 13% | -24%
- O=C(NCc1nc2ccccc2[nH]1)c1cccc(Cl)c1
  23%[46.1 µM] | . | 0% | -3%[46.1 µM] | -19% | . | -6% | .
- Cc1ccc(S(=O)(=O)C(CNC(=O)C(=O)NCc2ccccc2C)c2cccs2)cc1 (stereo not given)
  . | . | ? | ? | -2.3% | . | 0% | .
- Cc1ccc(CNC(=O)C2CCC(=O)N(C3CCCC3)C2)c(F)c1F (stereo not given)
  . | 10% | 3% | . | . | 3% | . | -4%

# Full records, quoted from the list. Values in the order: Marburg entry inh | SARS PLpro yeast | StopGo reporter | Lassa entry inh | Cruzain inh Det | RE007 growth inh | Cruzain inh noDet | NS1 inh
# `O=C(NC1CCC(O)CC1)c1cc(Cl)c2c(c1)OCCO2` (stereo not given) reads 8% | 2% | 31%[activator] | 3% | . | -6% | . | .
# `O=C1CC(c2ccc(S(=O)(=O)NCc3ccccc3)cc2)CN1` (stereo not given) reads . | -1% | 32%[activator] | . | 1.4% | -3% | -7% | ?
# `CN1C(=O)/C(=C\c2ccc(N3CCCCCC3)cc2)C(=O)NC1=S` reads . | 3% | -22% | . | . | -2% | . | -2%

# (listing goes on)
# Fields – Marburg entry inh | SARS PLpro yeast | StopGo reporter | Lassa entry inh | Cruzain inh Det | RE007 growth inh | Cruzain inh noDet | NS1 inh
- COc1cc(C(=O)N(C)CCOc2ccc(C)cc2)ccc1OC1CCN(C(C)=O)CC1
  0%[46.1 µM] | -5% | 12% | -21%[46.1 µM] | . | 8% | . | -11%
- CC(=O)c1c(C)oc2ccc(O)c(CN3CCOCC3)c12
  19% | -8% | -22% | 4% | -0.5% | -28% | -6% | 0%
- O=C(CCn1nnc(-c2cccs2)n1)NCc1ccccc1Cl
  11% | 4% | . | 3% | -2.5% | 8% | 6% | -7%
- CCOC(=O)C1CCN(C(=O)c2ccc(NC(=O)c3nsc4ccccc34)cc2)CC1
  . | . | 19% | 6%[46.1 µM] | -3.5% | . | 7% | .
- CCN1CCN(c2ccc(S(=O)(=O)N3CCCCC3)cc2NC(=O)C(C)Oc2ccc(F)cc2)CC1 (stereo not given)
  ? | -3% | -9% | ? | . | -6% | . | .
- CC(C)OCC(O)CS(=O)(=O)Cc1ccccc1 (stereo not given)
  14% | 16% | . | 15% | 0.5% | -3% | -4% | -2%
- COc1ccccc1N=Nc1c(O)[nH]c(=S)[nH]c1=O
  ? | -1% | 48%[activator] | ? | . | -12% | . | 2%
- O=C(c1ccc(NS(=O)(=O)c2cccc(F)c2)cc1)N1CCCCC1
  . | -4% | -8% | . | . | 19% | . | 3%
- O=C(COC(=O)c1c2c(nc3ccccc13)CCCCC2)NCc1ccc2c(c1)OCO2
  ? | -56% | ? | 1% | -2.8% | 4% | -18% | -33%
- C=CCn1c(SCc2nc3ccccc3[nH]2)nnc1-c1ccc(OC)cc1
  -26% | -3% | ? | 0% | 0.2% | 7% | 0% | -10%
- CCOC(=O)N1CCN(C(=O)CN(C2CCCCC2)S(C)(=O)=O)CC1
  3%[46.1 µM] | 2% | -19% | 30% | -0.6% | -3% | -4% | 2%
- CCOC(=O)c1sc(NC(=O)/C=C/c2ccc(OCC)cc2)c(C(=O)OCC)c1C
  . | . | -17% | ? | -1.2% | . | -12% | .
- C/C(=N\NC(=O)COc1ccc(C)cc1[N+](=O)[O-])c1ccc2c(c1)OCCO2
  ? | . | 3% | -1% | . | -2% | . | .
- COc1ccc(-c2nc(SCC(=O)Nc3cc(C)on3)n[nH]2)cc1
  5% | -1% | -6% | ? | 2.6% | -3% | -7% | 0%
- COc1cc(C(C)=O)ccc1OC(=O)CN1C(=O)c2ccccc2C1=O
  -1%[46.1 µM] | 1% | -13% | ? | . | -11% | . | -31%
- O=C(CCl)c1ccc(Cc2ncc(C(F)(F)F)cc2Cl)s1
  1%[46.1 µM] | 7% | 25µM* | -26% | -6.4% | 5% | -2% | 18%
- O=C(NCc1ccco1)c1ccc(N2CCCC2=O)cc1
  0%[46.1 µM] | -3% | 30%[activator] | 10% | 4.0% | 14% | -1% | 1%
- CCCn1c(NCc2ccccc2NS(=O)(=O)c2ccc(C)cc2)nc2ccccc21
  6.3µM* | 2% | 15% | ? | -3.4% | -12% | 18% | 14%
- O=C(/C=C/c1ccccc1[N+](=O)[O-])N1CCN(C(=O)c2ccco2)CC1
  ? | 0% | 0% | -1%[46.1 µM] | . | -10% | . | .
- CN(CC(=O)Nc1ccc(F)c(F)c1)S(=O)(=O)c1cccc2nsnc12
  10% | 2% | ? | 2% | 0.8% | 9% | -4% | 0%
- COc1ccc(N2CCN(C(=O)c3cnn(-c4ccc(F)cc4)c3-n3cccc3)CC2)cc1
  . | . | -22% | ? | -2.1% | . | -6% | .
- CCOc1ccc(-c2nc(SCC(=O)NCCCOC)c(-c3ccccc3)[nH]2)cc1
  ? | . | 17% | ? | 2.0% | . | 1% | .
- CCOC(=O)c1cnc2c(C)c(Cl)ccc2c1N1CCN(CC)CC1
  ? | -2% | -1% | ? | . | -4% | . | 2%
- CCc1cccc(CC)c1NC(=O)C(Cc1ccccc1)NS(=O)(=O)c1cccc2nsnc12 (stereo not given)
  ? | . | 12% | -18%[46.1 µM] | -3.1% | . | -12% | .
- Cn1cc2cc(NC(N)=S)ccc2n1
  26%[46.1 µM] | 1% | 4% | 10%[46.1 µM] | . | -14% | . | .
- CC12CC(O)C3C(CCC4=CC(=O)CCC43C)C1CCC2=O (stereo not given)
  6%[46.1 µM] | . | -2% | 0%[46.1 µM] | . | -4% | . | .
- O=C(c1cc2ccccc2oc1=O)N(Cc1ccccc1)CC1CCCO1 (stereo not given)
  -3% | 13% | 48%[activator] | -1% | -3.6% | -2% | -6% | 5%

# From PubChem
